Source: PubChem
StopGo reporter – High Throughput Screening for Foot and Mouth Disease Virus Antivirals. human cells with a luciferase reporter of 2A StopGo recoding; control for the full effect not named in the record. Potency, µM (series often up to 57.9 µM), without a hit: at the highest dose signal change, negative = less light. actives 1.2% (n = 410,000). AID 1159524, 2015; active = well fitted falling curve with a large enough effect; inconclusive = small, poorly fitted or top-dose-only effect; inactive = no such curve, though single readings can be large or run the other way; tested in HEK293T cells; further: nearly all actives have a fitted effect of over 45% in size; luciferase light after 4 h
RE007 growth inh – qHTS Assay for Inhibitors of the HIV-1 protein Vpr. S. pombe RE007 Vpr strain, BacTiter-Glo ATP luminescence, 24 h; control for the full effect not named in the record. Potency, µM (highest dose often 92.2 µM), for inactives: top-dose activity change, negative = less growth. actives 0.21% (n = 360,000). AID 651644, 2012; active = well fitted falling curve with a large enough effect; inconclusive = small, poorly fitted or top-dose-only effect; inactive = no such curve, though single readings can be large or run the other way;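 further: nearly all actives have a fitted effect of over 50% in size; the assay follows cell death caused by Vpr and the record does not say whether a fall means rescue or toxicity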
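Fission yeast RE007 carrying one integrated HIV-1 vpr copy, seeded at OD 0.01 in PMG+AL medium with 23 nL pinned compound. Grown 24 h at 30 degrees; viability read by BacTiter-Glo luminescence after 5 min.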
* marks the source's active call; other numbers are inactive results; ? = inconclusive; [ ] = remark or other dose. On the % scale 0 is the no-effect control and ±100 the full control effect; potency means the concentration at half of the fitted maximal effect. An excerpt. The share of hits here may be higher or lower than overall.

SMILES | StopGo reporter | RE007 growth inh
O=C(CCc1ccc(O)cc1)NN=Cc1ccc2c(c1)OCO2 | 61%[activator] | -17%
CCc1nc2c(OCCOc3ccc(F)cc3)cccn2c1N(C=O)Cc1ccccc1 | -6% | -22%
Cc1ccccc1NC(=O)CSc1nccn1Cc1ccco1 | 0% | -5%
CC(C)(C)NC(=O)C1C(c2ccccc2)=Nc2ccccc2N1C(=O)c1ccc(C(F)(F)F)cc1 (configuration not stated) | 6% | -19%
CCCCCCN1C[C@@H](n2cc(COC(=O)c3ccccc3)nn2)[C@H](O)C[C@@H]1c1ccc(OC)cc1 | ? | 5%
O=C(N[C@H]1c2ccccc2C[C@H]1O)[C@H]1O[C@@H](n2ccc(=O)[nH]c2=O)[C@H](O)[C@@H]1O | -7% | 5%
C=CCNc1ncnc2c1ncn2[C@H]1CN(CCc2ccccc2)C[C@@H](CO)O1 | -9% | 7%
OCCNc1ncnc2c1ncn2[C@H]1CN(Cc2ccncc2)C[C@@H](CO)O1 | 4% | 2%
C[C@@H]1CN([C@@H](C)CO)S(=O)(=O)c2ccc(C#Cc3cccc(F)c3)cc2O[C@@H]1CN(C)CC1CC1 | -3% | 2%
COC(=O)c1c(C)c(OC(=O)c2c(C)cc(O)c(C=O)c2O)cc(C)c1O | -17% | 14%
NC(=O)c1csc(C2OC(CO)C(O)C2O)n1 (configuration not stated) | -23% | 1%
O=C(NCc1ccccc1)C(c1ccccc1)n1c(C2CC2)nc2ccccc21 (configuration not stated) | 17% | ?
CC(=O)Nc1cc(-c2cccc(C(=O)NCCO)c2)cn2c(-c3ccc(F)cc3)cnc12 | -14% | 9%
COc1ccccc1-c1sc2ccccc2c1-c1cnc(N2CCOCC2)nc1 | 14% | 4%
NC(c1cccc(F)c1)c1nc(-c2ccc(Cl)cc2)cs1 (configuration not stated) | 1% | -12%
CCCCCCN1C[C@H](n2cc(COC(=O)c3ccccc3)nn2)[C@@H](O)C[C@@H]1c1ccc(Cl)cc1 | ? | -19%
CC(C)C[C@H]1CN(CCCC[C@@H]2CNC(=O)C(=O)N2CC2CCCCC2)C(=O)C(=O)N1CCc1ccccc1 | 9% | 5%
Nc1ccn([C@@H]2O[C@H](C(=O)N[C@H](CO)c3ccccc3)[C@@H](O)[C@H]2O)c(=O)n1 | -7% | 0%
Cc1ccc(Cl)cc1-c1cc(C(=O)NCc2cc(C(F)(F)F)cc(C(F)(F)F)c2)[nH]n1 | 40µM* | -7%
COC(=O)C1(C)CCCC2(C)C1CCC13OCC(CC21)C(O)(C(C)C)C3O (configuration not stated) | ? | -6%

Individual results from the list:
`CC(C)C[C@H]1CN(CCCC[C@@H]2CNC(=O)C(=O)N2CC2CCCCC2)C(=O)C(=O)N1CCc1ccccc1` @ StopGo reporter: 9%
`Nc1ccn([C@@H]2O[C@H](C(=O)N[C@H](CO)c3ccccc3)[C@@H](O)[C@H]2O)c(=O)n1` @ RE007 growth inh: 0%
`COc1ccccc1-c1sc2ccccc2c1-c1cnc(N2CCOCC2)nc1` @ RE007 growth inh: 4%
`Cc1ccc(Cl)cc1-c1cc(C(=O)NCc2cc(C(F)(F)F)cc(C(F)(F)F)c2)[nH]n1` @ RE007 growth inh: -7%

Other records.
SMILES | StopGo reporter | RE007 growth inh
COCCCNC(=O)C[C@@H]1C[C@@]2(C(=O)OC)CC(C)(C)CC=C2N(Cc2cccc3ccccc23)C1=O | -21% | -5%
Cc1cc2nc(NC(=O)C3(C)CCCN(C(C)C)C3)[nH]c2cc1C (configuration not stated) | -21% | -24%
Cn1nc(C(C)(C)C)cc1NC(=O)C1(C)CCN1C(=O)C1(c2ccccc2)CCCC1 (configuration not stated) | -27% | -2%
O=C(OCc1ccccc1)N1CCC2CC1c1ccc(-c3cccc(F)c3)cc12 (configuration not stated) | 19% | 6%
CCN(CC)c1ncnc2c1ncn2[C@H]1CN(C2CCCC2)C[C@@H](CO)O1 | -10% | 6%
Cc1ccc(F)cc1C(=O)N1CCCCC1c1cc(C(=O)NC(C)C)no1 (configuration not stated) | -14% | 13%
COCCCNC(=O)c1csc([C@H]2C[C@H](O)[C@@H](CO)O2)n1 | -5% | 12%
CC(=O)c1cccc(NC(=O)C2Cc3c(-c4cccc(C(N)=O)c4)ccnc3O2)c1 (configuration not stated) | ? | -4%
CC1(C(=O)O)CCCN(C(=O)/C=C/c2ccccc2)C1 (configuration not stated) | 0% | 7%
O=C(NCc1ccccn1)C1Nc2ccc(OC(F)(F)F)cc2C2C=CCC12 (configuration not stated) | ? | -5%
CCCOc1ccc(F)cc1-c1cc(C(=O)NCc2cccc(Cl)c2)[nH]n1 | -18% | -19%
O=C(NCc1ccc(F)cc1F)[C@@H]1CCCN1C(=O)[C@@H]1CCCN1C(=O)c1cccc2ccccc12 | -18% | 3%
CCOC(=O)C1CCCN(C(=O)c2ccc(C(F)(F)F)nc2C)CC1 (configuration not stated) | -4% | 16%
CCC(c1nnnn1-c1ccc2c(c1)OCCO2)N1CCN(c2ncccn2)CC1 (configuration not stated) | -19% | 0%
O=C(Nc1cccc(C(F)(F)F)c1)Nc1nnc([C@@H]2C[C@H](O)[C@@H](CO)O2)s1 | -20% | 0%
C#CC(=O)CC1(CN(Cc2ccccc2)C(=O)OC(C)(C)C)CCCCC1 | -25% | 18%
O=S1(=O)N[C@H](Cc2ccccc2)COc2cc(N3CCC[C@@H]3CO)ccc21 | 0% | 6%
C[C@@H]1CN([C@H](C)CO)C(=O)c2c(c3ccccc3n2C)-c2ccccc2CO[C@@H]1CN(C)C(=O)Nc1ccc2c(c1)OCO2 | ? | 4%
O=CNc1cc(-c2ccccc2)cn2c(-c3ccc(F)c(Cl)c3)cnc12 | -28% | 5%
O=c1c2cc3ccccc3nc2ncn1CCc1ccc(Cl)cc1 | -5% | 4%
Cc1cc(-c2ccccc2)nc(N/N=C/c2ccc(N(C)C)cc2)n1 | -19% | 4%
O=C1[C@H]2[C@@H](c3ccccc3)N[C@]3(CCCN(Cc4ccc(Br)cc4)C3=O)[C@H]2C(=O)N1Cc1ccccc1 | ? | 1%
CC(NC(=O)C(=O)c1cn(CC(=O)N2CCCC2)c2ccccc12)c1ccccc1 (configuration not stated) | -3% | -9%
COc1ccc(S(=O)(=O)N2CCN(CC(=O)NC(C)c3cccs3)CC2)cc1 (configuration not stated) | 0% | 0%
CSC[C@H]1CN(c2ccccc2)C(=O)[C@@H]1CC(=O)Nc1ccccc1 | -24% | 2%
Clc1ccc2nc(-c3ccccc3)c(Cc3ccccc3)n2c1 | -21% | -4%
COC(=O)C1=C(c2ccccc2)C[C@@H]2CC[C@H]1N2C(=O)NCCNC(C)=O | -1% | 3%
C#CCN(C[C@@H]1[C@@H](OC(=O)NC2CC2)[C@@H](OC(=O)NC2CC2)Cn2c(=O)ccc(=O)n21)S(=O)(=O)c1ccc(C)cc1 | 20µM* | -1%
Cc1nnsc1-c1nc2ccccc2n1C(CCc1ccccc1)c1nc2ccccc2[nH]1 (configuration not stated) | -11% | -7%
CC(C)(O)C1=C[N+](=O)CC=C1 | -23% | 0%
CCOc1ccc(-c2cnc3cccnn23)cc1 | 34%[activator] | -6%
CCc1nnc(NC(=O)c2cccc(S(=O)(=O)N3CCN(C)CC3)c2)s1 | 5% | 18%
CC(C)NC(=O)C1(C)CCN1Cc1cccc(Cl)c1 (configuration not stated) | 18% | 2%[18.4 µM]
CN(C)CCCNc1nc2cc(-c3ccsc3)sc2c(=O)n1C | -13% | 2%[18.4 µM]
O=C(NC1CCCCC1)C1c2ccccc2OCC(=O)N1CCc1c[nH]c2ccccc12 (configuration not stated) | -17% | -3%
O=C1NC[C@H](CCCCN2CCN(CC3CCCCC3)C(=O)C2=O)N(Cc2ccccc2)C1=O | 0% | 5%
COc1cc(C)c2sc3ccccc3c(=O)c2c1NCCN(C)C | ? | -14%
CCc1nc2ccc(C(=O)NCCOc3ccc(OC)cc3)cn2c1N(C)Cc1cccs1 | -30% | -14%[18.4 µM]
N#CC(=Cc1ccc(O)cc1)C(N)=C(C#N)C#N | -22% | 0%[18.4 µM]
O=C(Nc1cccc(C(=O)N2CCCCC2)c1)C1CCC1 | -18% | 4%

Rewritten comma-delimited: six of the compounds above
compound,StopGo reporter,RE007 growth inh
CN(C)CCCNc1nc2cc(-c3ccsc3)sc2c(=O)n1C,-13%,2%[18.4 µM]
COc1cc(C)c2sc3ccccc3c(=O)c2c1NCCN(C)C,?,-14%
CCOc1ccc(-c2cnc3cccnn23)cc1,34%[activator],-6%
CC(C)NC(=O)C1(C)CCN1Cc1cccc(Cl)c1 (configuration not stated),18%,2%[18.4 µM]
CCc1nnc(NC(=O)c2cccc(S(=O)(=O)N3CCN(C)CC3)c2)s1,5%,18%
O=C(NC1CCCCC1)C1c2ccccc2OCC(=O)N1CCc1c[nH]c2ccccc12 (configuration not stated),-17%,-3%

Carrying on.
SMILES | StopGo reporter | RE007 growth inh
Cc1ccc(-c2ccc(C3=CC(=O)CC(C)(C)C3=O)cc2)cc1 | 42%[activator] | 3%
C=C(C)Cn1c2ccc(NC(=O)NCC)cc2c(=O)n1C | 3% | 8%[18.4 µM]
COC(=O)[C@H](NC(=O)c1cc(-c2ccccc2)sc1N)C(C)C | 20% | -3%
CC(=O)N[C@H]1C(O)O[C@H](CO)[C@@H](O)[C@@H]1O (some centres not stated) | -7% | 6%[18.4 µM]
CCCCC(=O)N(C)c1c(CC)nc2c(OCC(=O)N(C)C)cccn12 | -24% | 1%[18.4 µM]
CC(=O)Nc1cccc(-c2ccnc3c2CC(C(=O)NCc2ccc(N4CCN(C)CC4)cc2)O3)c1 (configuration not stated) | -12% | -18%
COc1cc(C(=O)N(C(C)C)C2CCCCC2)cc(OC)c1OC | -7% | 20%
CCN(CC)S(=O)(=O)c1cc(C(=O)Nc2cc(S(=O)(=O)N3CCOCC3)ccc2N2CCN(C)CC2)ccc1C | -4% | -2%
CN1CCC(C)(C(=O)Nc2cccc(Oc3ccccc3)c2)C1 (configuration not stated) | 2% | -8%
CCOC(=O)n1c2ccccc2c(=O)n1CCO | -7% | -9%
Cc1ccc(CNC(=O)c2cc3ccccc3oc2=O)cc1 | 16% | -13%
CC(=O)c1ccc(Cc2ccc(C(C)=O)s2)s1 | 0% | 14%
Brc1cccc(-c2nc3c4ccccc4ccn3c2Cc2ccccc2)c1 | -2% | -7%
CN(C(=O)c1cccc(NC(=O)Cc2cccc(NC(=O)C3CCCN(C(=O)c4ccccc4)C3)c2)c1)C1CCC1 (configuration not stated) | -13% | 0%
C#CCOCCOCCOCCNc1nc(N2CCN(C(=O)C([C@@H](C)CC)n3cc(C(N)COC(=O)C(F)(F)F)nn3)CC2)nc(N2CCN(C(=O)[C@H](Cc3ccc(O)cc3)n3cc(C(N)[C@H](C)CC)nn3)CC2)n1 (some centres not stated) | -2% | -2%
O=C(Nc1cccc2c(=O)[nH][nH]c(=O)c12)c1ccc([N+](=O)[O-])cc1 | 15% | -14%
O=C1CSC(=S)N1N=Cc1c[nH]c2ccc(Br)cc12 | -7% | -18%
O=C1CCCC[C@@H](O)[C@H](O)C[C@H](c2ccccc2)O1 | -17% | 4%
C=CCn1c(SCC(=O)N2CCC(C)CC2)nc2c([nH]c3ccccc32)c1=O | -4% | 6%
CCc1nc2c(OCC(=O)C(C)(C)C)cccn2c1N(C)C(=O)c1ccco1 | -11% | 0%[18.4 µM]
CCCCC1Cc2[nH]c(=S)[nH]c(=O)c2C(c2ccc3ccccc3c2)O1 (configuration not stated) | -2% | 2%
C[C@@H]1CN([C@H](C)CO)C(=O)c2c(c3ccccc3n2C)-c2ccccc2CO[C@H]1CN(C)Cc1ccccc1 | -19% | 5%
C[C@@H]1CCCCO[C@H](CN(C)S(=O)(=O)c2cccs2)[C@H](C)CN([C@@H](C)CO)C(=O)c2cc(NC(=O)NC3CCCCC3)ccc2O1 | 0% | 16%
COc1ccccc1CNc1nc2cc(-c3ccsc3)sc2c(=O)n1C | ? | 2%[18.4 µM]
COC(=O)N1CCCCC1c1cc(C(=O)NCc2ccc(F)cc2)no1 (configuration not stated) | -5% | 10%
Cc1ccccc1C(=O)Nc1nnc([C@@H]2C[C@H](O)[C@@H](CO)O2)s1 | -2% | 14%
CCN(CC)CCNc1ccc(CO)c2oc3ccccc3c(=O)c12 | 0% | -13%
CCNC(=O)C1(C)CCN(C(=O)c2ccccc2)C1 (configuration not stated) | -12% | -15%
O=C(O)c1nc(-c2ccccc2)c(C(=O)NC2CC2)[nH]1 | -1% | -1%
O=C(CC[C@H]1O[C@@H](n2ccc(=O)[nH]c2=O)[C@H](O)[C@@H]1O)NCc1ccco1 | -23% | 11%
CSCCC(c1nc2ccccc2[nH]1)n1c(C)nc2ccccc21 (configuration not stated) | -15% | -2%
CCCNC(=O)C1(C)CCCN(Cc2ccsc2)C1 (configuration not stated) | -13% | 5%[18.4 µM]
COC(=O)C(c1ccccc1)C(CC(=O)c1ccccc1)c1ccccc1 (configuration not stated) | ? | -7%
Cc1ccc(-c2nc3c4ccccc4ccn3c2Cc2cccc(Cl)c2)cc1 | -3% | -6%
CC(=O)Nc1cccc(-c2ccnc3c2CC(C)(C(=O)Nc2cccc(Oc4ccccc4)c2)O3)c1 (configuration not stated) | -20% | -5%[18.4 µM]
Cc1ccc(OCC(=O)Nc2ccc(S(=O)(=O)NC3=NCCCCC3)cc2)cc1 | -18% | 2%
COc1ccc(NS(=O)(=O)c2cccc(C(=O)N3CCN(S(=O)(=O)c4ccccc4)CC3)c2)cc1 | ? | -7%
Clc1ccc(-c2cnc3cccnn23)cc1 | 32%[activator] | -13%
